Compound activity: PubChem, National Center for Advancing Translational Sciences (NCATS)
Vaccinia mCherry – qHTS for Stage-Specific Inhibitors of Vaccinia Orthopoxvirus: mCherry Reporter Primary qHTS; Vaccinia virus mCherry reporter infection, fluorescence; about a quarter of the inactives have no number; actives 0.63% (n = 310,000); Potency, µM (highest dose often 36.5 µM), without a hit: at the top dose activity change, negative = inhibition, actives largely listed as inhibitors; active = well fitted inhibition curve with a large enough effect; inconclusive = small, poorly fitted or top-dose-only effect; inactive = no such curve, though single readings can be large or run the other way; tested in A549 cells; also: nearly all actives have a fitted effect of over 35% in size; inactives centre near -10
Vaccinia Venus – qHTS for Stage-Specific Inhibitors of Vaccinia Orthopoxvirus: Venus Reporter Primary qHTS. Vaccinia virus Venus reporter expression, fluorescence. Potency, µM (doses to about 36.5 µM), without a hit: at the top dose activity change, negative = inhibition, actives largely listed as inhibitors. actives 0.46% (n = 330,000). AID 720580, 2013; active means well fitted inhibition curve with a large enough effect; inconclusive means small, poorly fitted or top-dose-only effect; inactive means no such curve, though single readings can be large or run the other way; tested in A549 cells; also: nearly all actives have a fitted effect of over 30% in size; inactives centre near -10
An asterisk follows results filed as active; i = inactive; ? = inconclusive; / = not tested or not shown; & = joins results of further samples; [ ] = another dose, or the depositor's remark. % is scaled to controls: 0 for no effect and ±100 for the full control effect; potency is read from the fitted curve at half-maximal effect.

SMILES | Vaccinia mCherry | Vaccinia Venus
NC(c1csc(Nc2ncccn2)n1)c1ccccc1Cl (stereo not drawn) | -12% | -21%
O=C(CSc1nc2ccccc2n1CC(=O)N1CCCC1)N1CCN(C(=O)c2ccco2)CC1 | -4% | -10%
CC(C)c1ccc(NC2CCCN(C(=O)CCCn3cncn3)C2)cc1 (stereo not drawn) | i | -11%
CC(C)Cn1nc(C(=O)OCC(=O)NCC(F)(F)F)c2ccccc2c1=O | i | -9%
Cc1ccc(NC(=O)CSc2nccn2Cc2ccco2)cc1 | -27% | -13%
CCC(C)Sc1ccc(-c2nc3ccc(C)cn3c2NCc2ccccc2)cc1 (stereo not drawn) | ? | ?
CCc1nnc(NC(=O)C2(C)COC(c3ccc(OC)cc3)OC2)s1 (stereo not drawn) | -3% | -4%
CC(OC(=O)CCN=C1NS(=O)(=O)c2ccccc21)C(=O)NC1CCCCC1C (stereo not drawn) | i | -15%
Cc1cc(C)c(C#N)c(SCc2ccccc2)n1 | / | -10%
Cc1ccnc(NC(=O)Nc2ccc3c(c2)N(C)C(=O)CS3)c1 | -14% | -18%
Cc1cccc(-n2cc(-c3ccccc3)c3c(NN4CCOCC4)ncnc32)c1 | -3% | -12%
CC(C)C(=O)OC/C(O)=C(\C#N)c1nc2ccccc2[nH]1 | i | -1%
Cc1ccc(S(=O)(=O)C(C#N)c2nc3ccccc3nc2OC(C)C)cc1 (stereo not drawn) | -12% | -4%
O=C(COC(=O)c1cncc(Br)c1)NCCC1=CCCCC1 | -11% | -8%
CC[C@@]1(C(=O)OC)N[C@H](CN(C)C(=O)C2CCCCC2)[C@@H]2C(=O)N(Cc3ccccc3)C(=O)[C@@H]21 | -24% | -26%
O=c1[nH]c2ccc(S(=O)(=O)NCCO)cc2[nH]1 | 6% | -1%
O=C1CCCCC1c1cccc2ccccc12 (stereo not drawn) | 0% | -6%
CCOCCn1c(N2CCCC2)nc2c1c(=O)n(C)c(=O)n2C | i | -2%
O=C1C(CCc2ccccc2)ON=C(c2cnccn2)N1Cc1ccc(F)cc1 (stereo not drawn) | 11% | -4%
CCCC(C)NC(C)C(=O)NC1CCCC1 (stereo not drawn) | -5% | -2%
COC(=O)c1ccccc1NC(=O)CSc1nccn1C | -9% | 3%
O=C1CN(C(=O)c2cc(Br)c(Br)s2)c2ccccc2N1 | ? | ?
Cc1ccccc1NS(=O)(=O)c1nnc(NC(=O)c2ccco2)s1 | -9% | -17%
CC(=O)N1CCCN(Cc2cn(-c3ccc(C)cc3)nc2-c2ccc(F)cc2)CC1 | ? | -25%
COc1ccccc1NC(=O)CCC(=O)OC(C)C(=O)c1ccccc1 (stereo not drawn) | 12% | 4%

Carrying on:
SMILES | Vaccinia mCherry | Vaccinia Venus
CC(C)CCNC(=O)Cc1ccc(Nc2nc(=S)[nH]c3ccccc23)cc1 | -15% | -11%
COCCCn1c(C(=O)Nc2ccc3c(c2)OCO3)cc2c(=O)n3cccc(C)c3nc21 | ? | 5µM*
COc1cc(NC(=O)c2cccc3c2C(=O)N(C2CCCCC2)C3)cc(OC)c1OC | -8%[7.34 µM] | -7%[7.34 µM]
O=C(Cn1ccc(NC(=O)OCc2ccccc2)nc1=O)NCCCN1CCCC1=O | i | -8%
CC1(C)C(=Cc2ccccc2)C(=O)c2ccccc21 | ? | -17%
Cc1ccnc(N=O)c1 | -9% | -18%
Cc1nc2cc(C(=O)OCC(=O)NC3CCS(=O)(=O)C3)ccc2n1-c1ccccc1 (stereo not drawn) | -16% | -3%
COc1ccccc1/C=C/c1nc(C#N)c(NC(C)c2ccccc2)o1 (stereo not drawn) | -4% | -8%
CC1(C)CC(=O)C2=C(C1)N(c1ncn[nH]1)C(N)=C(C#N)C2c1ccccc1 (stereo not drawn) | i | -7%
CCOC(=O)C(CC)n1nnc2sc(-c3ccccc3)cc2c1=O (stereo not drawn) | 3% | 0%
CSc1ncccc1C(=O)NCC12CC3CC(CC(C3)C1)C2 | -13% | -6%
Cc1cccc(NC(=O)CCN2CCN(C)CC2)c1 | -15% | -6%
O=C(O)C1CSC(c2ccco2)N1 (stereo not drawn) | 10% | 5%
Cc1ccnc(NS(=O)(=O)c2ccc(NC(=O)c3cncc(Br)c3)cc2)n1 | -13% | -2%
Cc1cc([N+](=O)[O-])c(Cl)cc1NC(=O)C(C)C | -10% | -7%
CCC(CC)C(=O)Nc1cccc(C(=O)NCCc2ccccc2)c1 | -9% | -16%
COc1cc(CCC(=O)OCC(=O)N(CCC#N)c2ccccc2)cc(OC)c1OC | i | 0%
CN1CCc2c(sc3nc(SCC(N)=O)n(-c4ccccc4)c(=O)c23)C1 | -13% | 9%
Cc1cccc(NC(=O)CSc2ccc(-c3cccs3)nn2)c1C | i | -9%
O=C(Nc1ccc(Cl)c(Cl)c1)N1CCCCCC1 | -6% | -1%
COc1ccc(OC)c(CN2C(=O)CN(S(C)(=O)=O)CC2(C)C(=O)Nc2c(C)cccc2C)c1 (stereo not drawn) | -4% | 14%
Cc1cc(F)ccc1NC(=O)Cn1nc(N2CCN(c3ccccc3)CC2)ccc1=O | -1% | -8%
O=C(Nc1ccc(Br)cc1)C1CCCC1 | -4% | -16%
CCc1nccn1S(=O)(=O)c1ccc(OC)c(C)c1C | -7% | -6%
COC(=O)c1nn(-c2ccccc2)c(Cl)c1/C=N/O | i | -22%

Carrying on.
SMILES | Vaccinia mCherry | Vaccinia Venus
CCOc1ccc(NC(=O)CN(C)C(=O)c2cccc(S(=O)(=O)N3CCCC3)c2)cc1OCC | i | -7%
COC(=O)c1ccc2nc(Nc3nc4c(F)cc(F)cc4s3)sc2c1 | -11% | -11%
CCOC(=O)c1ccc(NC(=O)CSc2ccc(-c3ccccn3)nn2)cc1 | ? | ?
CCCCSc1cc(=O)[nH]c(N)n1 | i | -1%
CCOC(=O)C1CCC(C(=O)OCC)N1c1ccc(C=O)cc1 (stereo not drawn) | i | 12%
CC1=C2C(=COC(C)C2C)C(=O)C(C(=O)O)=C1O (stereo not drawn) | -9% | 1%
CN(C)c1cccc(CNC(=O)c2ccc3nc([C@H]4C[C@H](O)[C@@H](CO)O4)[nH]c3c2)c1 | -1% | -7%
O=C(O)c1ccc(Oc2ccc(C(F)(F)F)cn2)cc1 | -3% | 2%
COc1ccc(C)cc1S(=O)(=O)N(CC(=O)O)c1ccc(F)cc1 | / | 8%
COc1cc(NC(=O)CN2CCN(S(=O)(=O)c3ccc(C(C)C)cc3)CC2)cc(OC)c1 | ? | -29%
CCOc1ccccc1-c1nc(-c2ccc(NC(=O)c3ccc(Br)o3)cc2)no1 | / | -25%
CC(C)C(N)c1csc(Nc2ccc(C(F)(F)F)cn2)n1 (stereo not drawn) | -1% | -21%
Fc1ccc(-c2nc(-c3c[nH]c4ccccc34)cs2)cc1 | i | -13%
Cc1ccc(NC(=S)NC(=O)C2CCC2)cc1C | -19% | -13%
COc1cccc(CC2(CO)CCN(Cc3cn(C)nc3C)CC2)c1 | -6% | -8%
CC(Oc1ccc(F)cc1)C(=O)NCC1(N(C)C)CCCCC1 (stereo not drawn) | -10% | -5%
NC1=NC(c2ccc(Br)cc2)n2c(nc3ccccc32)N1 (stereo not drawn) | -13% | -10%&-6%
CCOc1ccc(CCNC(=O)COC(=O)Cc2ccc(OC)c(OC)c2)cc1OCC | -13% | -2%
COc1ccc(C2CC(=O)Oc3c(C(CCN4CCCCC4)c4ccc(N(C)C)cc4)c(OC)cc(OC)c32)cc1 (stereo not drawn) | ? | ?
COc1c(CC=C(C)C)cc(C2CC(=O)c3c(O)cc(O)cc3O2)cc1CC=C(C)C (stereo not drawn) | -18% | -22%
CCC(C)NC(=O)C1CC(=O)N(CCc2ccc(F)cc2)C1 (stereo not drawn) | -22% | -14%
CC(=O)Nc1ccc(NC(=O)Cn2cc3c(n2)CCCC3)cc1 | / | -17%
COc1ccc(Cl)cc1NC(=O)C1CSC(c2ccncc2)=N1 (stereo not drawn) | -11% | -6%
CC(=O)Nc1ccc(C(=O)/C=C/c2ccco2)cc1 | i | 4%
O=C(O)CN1C(=O)COc2cc(S(=O)(=O)N3CCCC3)ccc21 | 7% | -3%

Entries of single compounds from above.
COc1cc(NC(=O)CN2CCN(S(=O)(=O)c3ccc(C(C)C)cc3)CC2)cc(OC)c1 as listed: Vaccinia mCherry: ?; Vaccinia Venus: -29%
CC(=O)N1CCCN(Cc2cn(-c3ccc(C)cc3)nc2-c2ccc(F)cc2)CC1 as listed: Vaccinia mCherry: ?; Vaccinia Venus: -25%

A draw from above in order of number of heavy atoms, lowest first:
SMILES | Vaccinia mCherry | Vaccinia Venus
CCCCSc1cc(=O)[nH]c(N)n1 | i | -1%
CC1=C2C(=COC(C)C2C)C(=O)C(C(=O)O)=C1O (stereo not drawn) | -9% | 1%
CC(=O)Nc1ccc(C(=O)/C=C/c2ccco2)cc1 | i | 4%
O=C(O)c1ccc(Oc2ccc(C(F)(F)F)cn2)cc1 | -3% | 2%
NC1=NC(c2ccc(Br)cc2)n2c(nc3ccccc32)N1 (stereo not drawn) | -13% | -10%&-6%
CCC(C)NC(=O)C1CC(=O)N(CCc2ccc(F)cc2)C1 (stereo not drawn) | -22% | -14%
O=C(O)CN1C(=O)COc2cc(S(=O)(=O)N3CCCC3)ccc21 | 7% | -3%
COc1ccc(C)cc1S(=O)(=O)N(CC(=O)O)c1ccc(F)cc1 | / | 8%
COc1cccc(CC2(CO)CCN(Cc3cn(C)nc3C)CC2)c1 | -6% | -8%
CCOC(=O)c1ccc(NC(=O)CSc2ccc(-c3ccccn3)nn2)cc1 | ? | ?
CCOc1ccccc1-c1nc(-c2ccc(NC(=O)c3ccc(Br)o3)cc2)no1 | / | -25%
CN(C)c1cccc(CNC(=O)c2ccc3nc([C@H]4C[C@H](O)[C@@H](CO)O4)[nH]c3c2)c1 | -1% | -7%
COc1c(CC=C(C)C)cc(C2CC(=O)c3c(O)cc(O)cc3O2)cc1CC=C(C)C (stereo not drawn) | -18% | -22%
CCOc1ccc(CCNC(=O)COC(=O)Cc2ccc(OC)c(OC)c2)cc1OCC | -13% | -2%
CCOc1ccc(NC(=O)CN(C)C(=O)c2cccc(S(=O)(=O)N3CCCC3)c2)cc1OCC | i | -7%
COc1ccc(C2CC(=O)Oc3c(C(CCN4CCCCC4)c4ccc(N(C)C)cc4)c(OC)cc(OC)c32)cc1 (stereo not drawn) | ? | ?

(next part)
SMILES | Vaccinia mCherry | Vaccinia Venus
O=C1C2=C(c3ccccc31)[N+](=O)[C@@H]1CCCC[C@@H]1N2[O-] | -13% | 2%
COCCN(C(=O)Cc1cccs1)C(C(=O)NCc1ccc(OC)cc1)c1ccc(C(C)C)cc1 (stereo not drawn) | -10% | -18%
COc1ccccc1N(CC(=O)NCCc1ccccc1)C(=O)CCC(=O)Nc1nccs1 | -3% | -21%
Cc1cccc(OCC(=O)NCC(=O)N=Nc2c(O)[nH]c3ccc([N+](=O)[O-])cc23)c1 | -2% | 0%
COc1ccccc1CN(Cc1ccco1)S(=O)(=O)c1ccc(-n2cnnn2)c(OC)c1 | -20% | -13%
Clc1ccc(/C=C/c2ccncc2)cc1Cl | 4.5µM* | ?
Cc1ccc(NC(=O)CCc2ccc(C)o2)c(Br)c1 | i | -19%
CC(C)(C)Nc1nc(Nc2ccc([N+](=O)[O-])cc2)nc(NC(C)(C)C)n1 | -14% | -5%
COc1cc(OC)c(NC(=O)C(C)n2c(=O)cc(-c3ccccc3)c3c(C)nn(C)c32)cc1Cl (stereo not drawn) | -14% | -12%
COc1ccc(CCN2C(=O)CC(Nc3ccc(N4CCOCC4)cc3)C2=O)cc1OC (stereo not drawn) | / | 10%
CC(C)CN1CC(C(=O)O)CC1=O (stereo not drawn) | -4% | 9%
CC(=O)Nc1ccc(NC(=O)CC2(CC(=O)N3CCOCC3)CCCC2)cc1 | -4% | -16%
COc1cc(C2OC(=O)c3ccccc3S2)cc(OC)c1OC (stereo not drawn) | 2% | 0%
N#Cc1ncc(-c2ccc3c(c2)OCCOCCOCCOCCOCCO3)nc1C#N | -9% | -5%
Cc1ccc(SCCc2cc[n+](CC(=O)c3ccccc3)cc2)cc1 | i | -4%
COC(=O)c1ccc(NC(=O)CN(C2CCCCC2)S(C)(=O)=O)cc1 | -9% | -30%
Cc1nnc(SCC(=O)N2c3ccccc3CC2C)[nH]c1=O (stereo not drawn) | i | -12%
COc1ccc(C(CC(=O)O)n2cnnn2)cc1 (stereo not drawn) | i | -22%
C/C=C(\C)C(=O)OC1c2c(ccc3ccc(=O)oc23)OC(C)(C)C1OC(C)=O (stereo not drawn) | i | -1%
COc1cc(NC(=O)CC[C@H]2O[C@@H](n3cnc4c(NC(=O)c5ccccc5)ncnc43)[C@H](O)[C@@H]2O)cc(OC)c1OC | 3% | 2%
O=C(CCN1C(=O)c2ccccc2S1(=O)=O)NCc1ccc(F)cc1 | -22% | -9%
CC(NC(=O)c1ccco1)C(=O)O (stereo not drawn) | i | -1%
CN(Cc1ccccc1)C(=O)COC(=O)c1ccc(Cl)cc1N | -17% | -12%
CCCCC(=O)Nc1ccc(Cl)cn1 | -10% | -19%
COc1ccc(-c2cc(=O)[nH]c(=S)[nH]2)cc1 | i | -10%
COC(=O)c1ccc2c(c1)N(CC(=O)Nc1cccc(Cl)c1C)C(=O)c1ccccc1S2 | 3% | 9%
COc1ccc(Nc2nc(C(=O)N3CCc4ccccc4C3)cs2)cc1 | -18% | -6%
COc1ccc(N(CC(=O)Nc2ccccc2C(=O)N2CCCC2)S(C)(=O)=O)cc1 | i | 0%
